YopH inh = blocks Yersinia enterocolitica YopH tyrosine phosphatase; inhibition, %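 (about 10 µM by stock and volumes)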; fluorescence Ex485/Em525; 140,000 tested, 0.16% active; AID 898;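 active = inhibition of 50% or more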;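 note: controls were vehicle for no effect and minimum signal wells for full effect; inactives centre near -20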
Mtb H37Rv = M. tuberculosis H37Rv growth inhibitors, H37Rv strain (AID 1626); M. tuberculosis H37Rv growth inhibition; higher % means a stronger effect; one-dose inhibition, % at 10 µM; IC50 in µM for titrated hits; 220,000 tested, 0.95% active;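 active = confirmed in a dose series; inconclusive = inhibition above 80% but not taken into the dose series; inactive = below 80% or under 30% at every dose of the series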;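 note: bacteria incubated seven days before Alamar blue readout; 0% = bacteria only wells and 100% = bacteria with antibiotic wells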
RecA intein inh = blocks M. tuberculosis RecA intein splicing. P9WHJ3. cell-free RecA intein splicing, fluorescence. inhibition, %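 (about 9 µM by stock and volumes)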. 290,000 tested, 0.75% active. AID 2221; in the data active = inhibition above about 30%; inconclusive = no clear call, values can overlap the other calls;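 note: 0% = vehicle wells and 100% = reference inhibitor control wells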
Target sequence (P9WHJ3 whole entry, looked up): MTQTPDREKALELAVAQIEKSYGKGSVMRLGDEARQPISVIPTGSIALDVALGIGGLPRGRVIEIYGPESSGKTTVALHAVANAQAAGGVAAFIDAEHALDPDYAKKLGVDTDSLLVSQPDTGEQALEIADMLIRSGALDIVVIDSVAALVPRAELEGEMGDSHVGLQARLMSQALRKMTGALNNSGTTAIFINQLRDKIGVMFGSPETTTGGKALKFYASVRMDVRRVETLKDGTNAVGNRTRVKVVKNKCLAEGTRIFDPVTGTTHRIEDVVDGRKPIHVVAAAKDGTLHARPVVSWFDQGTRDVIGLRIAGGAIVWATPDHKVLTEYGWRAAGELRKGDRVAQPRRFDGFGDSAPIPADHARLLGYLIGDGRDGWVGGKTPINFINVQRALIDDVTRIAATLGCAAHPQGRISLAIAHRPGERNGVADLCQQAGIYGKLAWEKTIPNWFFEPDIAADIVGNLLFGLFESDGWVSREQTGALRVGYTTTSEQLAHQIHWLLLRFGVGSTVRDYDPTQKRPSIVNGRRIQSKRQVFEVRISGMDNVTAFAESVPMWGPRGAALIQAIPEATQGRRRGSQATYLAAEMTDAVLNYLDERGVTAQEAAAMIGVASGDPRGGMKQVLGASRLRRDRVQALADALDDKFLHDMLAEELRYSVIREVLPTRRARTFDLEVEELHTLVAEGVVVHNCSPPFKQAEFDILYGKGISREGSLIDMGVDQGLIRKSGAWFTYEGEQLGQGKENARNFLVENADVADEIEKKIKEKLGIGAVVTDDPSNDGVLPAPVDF
Arbovirus inh = antivirals against arbovirus infection | arbovirus infection cell-based antiviral screen | 200,000 tested, 0.37% active | AID 1251 | inhibition, % at 10 µM;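 active = inhibition from about 30%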;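 note: bluetongue infection of BSR cells; cell survival read as ATP light after 72 h; 0% = infected wells without compound and 100% = uninfected wells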
Mtb betalactam = beta-lactam sensitization of Mtb H37Rv; M. tuberculosis H37Rv growth with meropenem, percent inhibition; hits of this screen are not shown here; inhibition, % at 25 µM; 330,000 tested, 0.27% active; AID 434955;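 active = about 74% or more and at least 40 points above the plate without the antibiotic, then above 30% in a dose series; inconclusive = first-round hits that could not be retested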;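 note: growth measured after seven days incubation then overnight dye step; 0% = bacteria only wells and 100% = bacteria with antibiotic; twin plates without the antibiotic show which effects depend on it; some results filed as inactive read as strong as hits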
Arbovirus inh repeat = second read-out of Arbovirus inh, no call of its own (marks repeat the call); inhibition, %; measured here: 10K subset replicate screen; many hits read low in the repeat;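 first of two repeat runs on a subset; 0% = infected and 100% = uninfected wells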
An asterisk follows results filed as active; ? = inconclusive; nt = no result given.

SMILES | YopH inh | Mtb H37Rv | RecA intein inh | Arbovirus inh | Mtb betalactam | others
Cn1cc(/C=N\O)nc2c(=O)n(-c3ccccc3)c(=O)nc1-2 | nt | 4% | -22 | 6 | -6
Cc1ccc(-c2cc(C(=O)N3CCCc4ccccc43)c3ccccc3n2)cc1 | 7 | 0% | 6.6 | 1 | -2
COCCOc1cc(-n2ccnc2SC)c(Cl)cc1Cl | -39 | 0% | 1.5 | -5 | -1
COc1cc(/C=C/C(=O)OC(C)C(=O)c2ccccc2)cc(OC)c1OC (centres undefined) | nt | nt | 4.0 | nt | 0
O=C(N/C(=C/c1cn(-c2ccccc2)nc1-c1ccccc1)C(=O)N1CCOCC1)c1ccccc1 | -15 | -4% | -1.5 | 2 | 14
CCC(C)(C)C(=O)Nc1cccc(Cl)c1C | nt | 5% | 7.5 | 4 | 2
O=C(CNC(=O)c1ccco1)OCc1ccc(Cl)cc1 | 18 | -3% | 3.0 | 0 | -7 | Arbovirus inh repeat=4
CCOC(=O)Cn1nc(C)c(NC(=O)COc2ccc(F)cc2F)c1C | nt | -1% | 0.1 | 3 | 0
O=c1[nH]c(=O)n(Cc2ccco2)c2c1C(C(F)(F)F)(C(F)(F)F)N=C(CCC1CCCCC1)N2 | 15 | 3% | 0.8 | 0 | -2
CCN(c1ccc(NC(=O)CCNC(=O)c2ccco2)cc1)C(C)C | -33 | 3% | -2.8 | 5 | -5
CCn1c2ccccc2c2nc3cc(C(=O)O)ccc3nc21 | nt | 8% | nt | 2 | nt
Cc1cc(C(=O)COC(=O)c2ccccc2NCCO)c(C)n1CC1CCCO1 (centres undefined) | nt | nt | 1.5 | nt | 13
Cc1ccccc1Nc1nc(N)nc(COC(=O)CCNS(=O)(=O)c2ccccc2)n1 | nt | nt | -2.1 | nt | -14
Cc1nc2sc(C(c3cccs3)N3CCC(C(N)=O)CC3)c(O)n2n1 (centres undefined) | -15 | 5% | -2.3 | 3 | -6 | Arbovirus inh repeat=-1
CCc1cc2c(=O)c(-c3nc4ccccc4[nH]3)coc2c(CN2CCCCC2C)c1O (centres undefined) | nt | 3% | -2.1 | nt | 48

Next section, starting with the last 6 of the part before.
SMILES | YopH inh | Mtb H37Rv | RecA intein inh | Arbovirus inh | Mtb betalactam | others
CCN(c1ccc(NC(=O)CCNC(=O)c2ccco2)cc1)C(C)C | -33 | 3% | -2.8 | 5 | -5
CCn1c2ccccc2c2nc3cc(C(=O)O)ccc3nc21 | nt | 8% | nt | 2 | nt
Cc1cc(C(=O)COC(=O)c2ccccc2NCCO)c(C)n1CC1CCCO1 (centres undefined) | nt | nt | 1.5 | nt | 13
Cc1ccccc1Nc1nc(N)nc(COC(=O)CCNS(=O)(=O)c2ccccc2)n1 | nt | nt | -2.1 | nt | -14
Cc1nc2sc(C(c3cccs3)N3CCC(C(N)=O)CC3)c(O)n2n1 (centres undefined) | -15 | 5% | -2.3 | 3 | -6 | Arbovirus inh repeat=-1
CCc1cc2c(=O)c(-c3nc4ccccc4[nH]3)coc2c(CN2CCCCC2C)c1O (centres undefined) | nt | 3% | -2.1 | nt | 48
COc1ccc(-n2c(SCC(=O)N3CCCC3)nc3ccccc3c2=O)cc1 | nt | -3% | -1.2 | -7 | -5
CCN(C(=O)CSc1nc2n[nH]c(C)c2c(=N)n1-c1ccc(Cl)c(C)c1)c1cccc(C)c1 | nt | nt | -0.4 | nt | 43
COc1ccccc1CNS(=O)(=O)c1ccc(C)cc1 | -22 | 6% | -2.3 | 0 | -2
CCN1C(=O)CC(Sc2ccccc2N)C1=O (centres undefined) | -17 | -1% | -2.3 | -1 | -4
Cc1ccc(Cn2c(=N)c(S(=O)(=O)c3ccc(C)cc3)cc3c(=O)n4ccccc4nc32)cc1 | nt | nt | -13 | nt | 39
CCc1c(C)sc(NC(=O)OC)c1C(N)=O | 11 | -2% | 1.4 | -4 | 2
COc1ccc2c(c1)C(=O)CC(c1ccc(OC)c(OC)c1)O2 (centres undefined) | nt | nt | -4.5 | nt | 7
O=C(CC1C(=O)NCCN1CCCc1ccccc1)NCCc1ccccc1F (centres undefined) | nt | nt | 2.2 | nt | 5
CC(C)(C)Cc1nnc(NS(C)(=O)=O)s1 | -23 | 2% | 0.2 | nt | -5
COc1ccc(C(=O)NC(=S)NCc2ccc(-c3nc4ccccc4o3)cc2)cc1OC | 5 | 3% | 0.7 | 9 | 5
Cc1cc(CNC(=O)C(C)n2cc([N+](=O)[O-])cn2)c2ccccc2n1 (centres undefined) | nt | 4% | -0.3 | 1 | -4
CC(CN1CCCC1)OC(=O)c1ccccc1Cl (centres undefined) | nt | nt | -2.5 | nt | -6
CN1CCN(c2ccc(S(=O)(=O)N3CCCCC3)cc2NC(=O)c2ccc(C#N)cc2)CC1 | -22 | -1% | 1.2 | 8 | -6
OC(COc1cccc2ccccc12)CN1CCN(c2ccccc2Cl)CC1 (centres undefined) | nt | nt | -1.8 | nt | 71
CC(C)CC(=O)Nc1c2c(nn1-c1ccc([N+](=O)[O-])cc1)CS(=O)(=O)C2 | nt | nt | -0.5 | nt | 0

An excerpt from further up:
SMILES | YopH inh | Mtb H37Rv | RecA intein inh | Arbovirus inh | Mtb betalactam | others
OC(COc1cccc2ccccc12)CN1CCN(c2ccccc2Cl)CC1 (centres undefined) | nt | nt | -1.8 | nt | 71
CC(C)CC(=O)Nc1c2c(nn1-c1ccc([N+](=O)[O-])cc1)CS(=O)(=O)C2 | nt | nt | -0.5 | nt | 0

Random excerpt: 4 entries already listed
SMILES | YopH inh | Mtb H37Rv | RecA intein inh | Arbovirus inh | Mtb betalactam | others
CCc1c(C)sc(NC(=O)OC)c1C(N)=O | 11 | -2% | 1.4 | -4 | 2
CCN1C(=O)CC(Sc2ccccc2N)C1=O (centres undefined) | -17 | -1% | -2.3 | -1 | -4
OC(COc1cccc2ccccc12)CN1CCN(c2ccccc2Cl)CC1 (centres undefined) | nt | nt | -1.8 | nt | 71
CC(CN1CCCC1)OC(=O)c1ccccc1Cl (centres undefined) | nt | nt | -2.5 | nt | -6

More structures:
SMILES | YopH inh | Mtb H37Rv | RecA intein inh | Arbovirus inh | Mtb betalactam | others
COc1ccc(C(=O)C2CCCN(Cc3ccon3)C2)c(OC)c1 (centres undefined) | nt | 2% | 10 | 0 | -8
O=C(CN1C(=O)c2ccccc2C1=O)Nc1nccs1 | nt | 1% | -0.1 | nt | -9
CCOc1ccc(CCNC(=O)CCCn2c(=O)c3cccn3c3cccnc32)cc1OCC | nt | nt | 1.9 | nt | 3
CCOC(=O)c1ccc(NC(=S)N2CCCC2)cc1 | nt | 1% | -2.1 | 2 | -9
Cc1ccc(CCN2CC(C(=O)NCc3cccnc3)CC2=O)cc1 (centres undefined) | -48 | 1% | -2.2 | -1 | -1 | Arbovirus inh repeat=3
COc1ccc(N2CCN(C(=O)CN=C3NS(=O)(=O)C(c4ccc(C)cc4)=C3C)CC2)cc1 | -28 | -7% | nt | 5 | -6
NC(=O)C1CCN(C(=O)CSc2ccsc2[N+](=O)[O-])CC1 | nt | -2% | nt | 5 | nt
CC1CN(C(=O)COC(=O)c2ccc(Cl)c(N)c2)CC(C)O1 (centres undefined) | nt | nt | 1.0 | nt | -11
CC(C(=O)N1c2ccc(F)cc2CCC1C)N1C(=O)c2ccccc2C1=O (centres undefined) | -48 | 57% | -2.2 | 0 | 2
CCCCn1nc(NC(=O)COC)c2cc3ccc(C)cc3nc21 | nt | nt | -41 | nt | 6
COc1ccc(C(=O)Nc2ccc(S(=O)(=O)Nc3onc(C)c3C)cc2)cc1 | 1 | 2% | -4.6 | -4 | 36
COc1ccc(NC(=O)Cc2c(Cl)cccc2Cl)cn1 | nt | -2% | 2.9 | -2 | 0
Cc1ccc(C)n1Cc1ccccc1Cl | nt | -15% | 1.5 | 2 | 1
COc1ccc(-c2cc3c(=O)n(CC(=O)NCc4cccnc4)ncn3n2)cc1 | nt | nt | -0.2 | nt | -10
CC(=O)Nc1ccccc1C(=O)N1CC2(C)CC1CC(C)(C)C2 (centres undefined) | -4 | -13% | 0.6 | 10 | -7
Cc1cc(C)c(S(=O)(=O)c2ccccc2)c(OC(=O)c2c(Cl)cccc2Cl)n1 | -36 | nt | 0.2 | 17 | -8
C/C(N)=C(/C#N)C(=O)CSc1nnc(COc2cc(C)ccc2C)o1 | -6 | -7% | -1.1 | -4 | 5
CCOC(=O)Cn1c(=O)oc2cc(S(=O)(=O)NCCc3ccc(OCC)c(OCC)c3)ccc21 | -31 | 11% | -1.3 | 0 | nt
NC(=O)c1ccccc1NC(=O)Cc1cccs1 | nt | nt | 0.3 | nt | 3
Cc1cc(C)cc(NC(=O)C2(c3cccs3)CCOCC2)c1 | -23 | 2% | -6.3 | 0 | -1
COc1ccc(-c2nn(C)c(=O)c3ccccc23)cc1NC(=O)COc1ccc(C)cc1 | 2 | 0% | -0.9 | -16 | 6
Cc1nc([N+](=O)[O-])nn1C12CC3CC(CC(Br)(C3)C1)C2 | -19 | -8% | -4.1 | -1 | 0
c1ccc(Sc2ccccc2CN2CCCC2)cc1 | nt | nt | -0.2 | nt | -8
CC(C)OC(=O)CSc1nnnn1-c1ccc2c(c1)OCCO2 | -9 | -7% | 1.0 | 3 | 4
S=C(NCCCN1CCOCC1)N1CCN(c2nc(-c3ccccc3)cs2)CC1 | nt | 2% | 0.3 | -39 | -1
CCC(=O)Nc1nonc1-c1nc2ccccc2n1Cc1cccc2ccccc12 | -33 | 20% | -1.2 | -17 | 8
Cc1cc(C)n(-c2nc3ccccc3nc2Nc2ccc3c(c2)OCO3)n1 | -38 | 13% | -2.2 | 9 | 1 | Arbovirus inh repeat=2
CSc1ncccc1C(=O)Nc1ccncc1 | nt | nt | -0.7 | nt | -4
CN1CCN(c2ccc(CNC(=O)c3cc4ccccc4o3)cc2)CC1 | nt | -5% | -0.1 | nt | -7
COc1ccc(CCNC(=O)C2(C)CCC(=O)N2Cc2ccc(C)cc2)cc1OC (centres undefined) | nt | nt | -0.7 | nt | -2

The last 2 records of the part above lead into the next:
SMILES | YopH inh | Mtb H37Rv | RecA intein inh | Arbovirus inh | Mtb betalactam | others
CN1CCN(c2ccc(CNC(=O)c3cc4ccccc4o3)cc2)CC1 | nt | -5% | -0.1 | nt | -7
COc1ccc(CCNC(=O)C2(C)CCC(=O)N2Cc2ccc(C)cc2)cc1OC (centres undefined) | nt | nt | -0.7 | nt | -2
O=C(NCCN1CCOCC1)c1cccc(S(=O)(=O)N2CCCCC2)c1 | nt | nt | -1.8 | nt | -3
CCN(CC(=O)NCc1ccc(Cl)cc1)C(=O)CSc1ccccc1 | nt | nt | 0.8 | nt | -3
O=C(O)CNCC1COc2ccccc2O1 (centres undefined) | -53 | -8% | -2.5 | 1 | 0
COc1cc2[nH]c(C(=O)NCc3ccccc3)cc2c(OC)c1OC | nt | nt | -0.2 | nt | -4
COc1ccc(NC(=O)COc2ccc(C)cc2)c([N+](=O)[O-])c1 | nt | -6% | -0.6 | 8 | 0
O=C(CCNS(=O)(=O)c1cccs1)N1CCCCCC1 | -10 | -6% | 2.5 | 6 | -1
COc1ccccc1NC(=O)c1ccc(C(=O)Nc2ccccc2OC)nc1 | nt | nt | -1.7 | nt | -2
CC(=O)N1CCCc2cc(S(=O)(=O)N3CCCC(C(=O)Nc4cccc(C)c4)C3)ccc21 (centres undefined) | nt | nt | -0.7 | nt | 0
O=C(CSc1nc(=O)[nH]c2c1CCCC2)Nc1cc(C(F)(F)F)cc(C(F)(F)F)c1 | nt | nt | 4.8 | nt | -4
CC(C)(C)NC(=O)Cn1c(=O)n(CC(=O)NC(C)(C)C)c2ccccc21 | nt | 0% | -2.0 | -1 | -8
C=CCn1c(=S)sc2c(=O)[nH]c(C)nc21 | nt | 3% | -1.6 | nt | 4
C/C(=N\NC(=O)C1CC1c1ccccc1)c1cccc([N+](=O)[O-])c1 (centres undefined) | -17 | 2% | -0.2 | -1 | 8
CC(c1ccccc1)C(Cc1nc2ccccc2[nH]1)c1nc2ccccc2[nH]1 (centres undefined) | nt | ? | 14 | 24 | 88
CC(C)Nc1c([N+](=O)[O-])c(=O)oc2ccccc12 | nt | 1% | -2.4 | 2 | 2
Cc1cccnc1NC(=O)C(c1ccccc1)c1ccccc1 | nt | nt | 0.5 | nt | -10
O=C1OC(c2ccccc2)=C/C1=C/N1CCOCC1 | -14 | 1% | 2.2 | 1 | -1

An excerpt, so the mix of outcomes need not match the whole.
